2A Renilla = Primary qHTS Assay for Foot and Mouth Disease Virus Antivirals against NCGC Sytravon and CBC Compound Libraries: Renilla Luciferase Signal; 0.32% of 120,000 active; Potency, µM (doses to about 57.5 µM), inactives show at the highest dose signal change, negative = less light; HEK cells with a luciferase reporter of 2A StopGo recoding; active means well fitted falling curve with a large enough effect; inconclusive means small, poorly fitted or top-dose-only effect; inactive means no such curve, though single readings can be large or run the other way; note: nearly all actives have a fitted effect of over 55% in size; overnight with compound
StopGo FLuc = Primary qHTS Assay for Foot and Mouth Disease Virus Antivirals against NCGC Sytravon and CBC Compound Libraries: Firefly Luciferase Signal. 0.23% of 120,000 active. Potency, µM (doses to about 57.5 µM), for inactives: at the highest dose signal change, negative = less light. HEK cells with a luciferase reporter of 2A StopGo recoding; active = well fitted falling curve with a large enough effect; inconclusive = small, poorly fitted or top-dose-only effect; inactive = no such curve, though single readings can be large or run the other way; note: nearly all actives have a fitted effect of over 60% in size; overnight with compound
An asterisk follows results filed as active; ? = inconclusive; & = joins results of further samples; [ ] = dose if it differs, or a comment. % is set by controls: 0 for no effect and ±100 for the full control effect; potency is the fitted concentration of half-maximal effect. These rows are one share of the data; count on the stated rates, not on these rows.

Structure	2A Renilla	StopGo FLuc
O=C(NC1(C(F)(F)F)C(=O)Nc2c1c(=O)[nH]c(=O)n2-c1ccccc1)c1ccccc1Cl (stereo unspecified)	-9%	-8%
Cc1c(Cl)cccc1NC(=O)NCCOCCn1c(=O)oc2ccccc21	-11%	-2%
COC(=O)c1sc(-c2ccccc2)cc1NC(=O)c1cccc(Cl)c1	-5%	-19%
Cc1ccc(Nc2ncnc3onc(C)c23)cc1Cl	4%	0%
CCOc1ccccc1NC(=O)c1c(NC(=O)c2ccccc2C)sc2c1CCC(C)C2 (stereo unspecified)	0%	-6%
CC(C)(Oc1ccc(Cl)cc1)C(=O)Nc1nnc2n1CCS2	-11%	-7%
Cc1nc2ccc(C(=O)NC(C3CC3)C3CC3)cc2nc1C	15%	156%[activator]
CCC(CC)C(=O)Nc1cccc(-c2cn3cccnc3n2)c1	-8%	0%
O=C(Nc1cccc(-c2nnnn2C2CC2)c1)C1CCCC1	?	18%
Oc1ccc(Oc2ccc3nnc(-c4ccccc4Cl)n3n2)cc1	-2%	-8%
Cc1oc(-c2ccccc2)nc1CSc1nc2ccncc2[nH]1	?	?
COC(=O)c1ccc(NS(=O)(=O)c2c(C)nc3sccn3c2=O)cc1	112%[activator]	-22%
Cc1ccc(-c2noc(COC(=O)Cc3n[nH]c(=O)c4ccccc34)n2)cc1F	-6%	4%
Cn1c(NCc2ccco2)nc2c1c(=O)n(Cc1ccc(Br)cc1)c(=O)n2C	11%	-11%
CCCn1c2ccccc2c2cnn(CC(=O)N3CCC(C)CC3)c(=O)c21	-10%	-15%
Cc1ccc(CNC(=O)CSc2nnc3ccc(-c4ccc5c(c4)OCO5)nn23)cc1	23%	109%[activator]
CCOC(=O)CCc1c(C)c2ccc(OCC(=O)C(C)(C)C)c(C)c2oc1=O	18%	2.8µM*
CCOC(=O)/C(C#N)=C/c1ccc(-c2ccc(C)cc2)o1	-12%	-5%
COc1ccc(N(CC(=O)Nc2cc(C)ccc2C)S(=O)(=O)c2ccc(OC)c(OC)c2)cc1	-12%	?
Cc1ccccc1Oc1ccc(S(=O)(=O)N2CCCC2)cn1	33%[activator]	28%
O=C(Cc1ccccc1)Nc1cccc(-c2cn3cccnc3n2)c1	64%[activator]	93%[activator]
Cc1oc2cc(OCC(=O)O)ccc2c(=O)c1Oc1ccccc1	-4%	-15%
Cc1cccc(Nc2nc3ccccc3n3c(N)nnc23)c1	-5%	0%
COC(=O)c1ccc(COC(=O)c2nn(C)c(=O)c3ccccc23)cc1	-2%	0%
CC1CCC(NC(=O)C(=O)Nc2cccc(Cl)c2Cl)CC1 (stereo unspecified)	-5%	104%[activator]
CC(C)CCNC(=O)CSc1nnc(NC2CCCCC2)s1	-3%	8%
O=C(Cn1cnc(S(=O)(=O)N2CCc3ccccc32)c1)NC1CCCCCC1	-6%	-11%
Cc1cccc(C(C)C)c1NC(=O)C1CCN(c2nc3ccccc3o2)CC1	-3%	22%
CCCC12CN3CC(CCC)(CN(C1)C3c1ccccn1)C2=O (stereo unspecified)	1%	-23%
CS(=O)(=O)NCCc1ccc(C(=O)COc2ccc(Br)cc2Cl)s1	-31%	-14%
Cc1ccc(C(=O)c2ccccc2)c(C)c1	-1%	0%
COC(=O)c1ccc(C(=O)N2CCN(C(c3ccc(F)cc3)c3ccc(F)cc3)CC2)s1	1%	0%
COc1ccc(NC(=O)c2nn(C)c(=O)c3ccccc23)cc1OC	55%[activator]	87%[activator]
COc1cc2c(cc1OC)C(CC(=O)O)N(C(=O)Nc1cc(OC)c(OC)c(OC)c1)CC2 (stereo unspecified)	-11%	-13%
COc1ccc(Cc2nnc3n2N(C(C)=O)C(c2ccc(C)cc2)=C(C(C)=O)S3)cc1	-13%	-13%
CCOC(=O)N1CCN(C(=O)c2ccc3c(c2)N(Cc2cccc(Cl)c2)C(=O)c2ccccc2S3=O)CC1 (stereo unspecified)	-5%	-21%
Cc1ccccc1-n1cnnc1SCC(=O)NC(C)c1cccc2ccccc12 (stereo unspecified)	4%	-12%
COc1ccc(C(=O)c2c(N)c(C(=O)Nc3ccccc3OC)c3ccccn23)cc1	-3%	0%
Cc1ccc(Cl)cc1N1CCN(C(=O)c2c(C)oc3ncnc(N4CCCCC4)c23)CC1	?	?
COc1ccc2cc3c(N)nn(C(=O)c4ccccc4Cl)c3nc2c1	46%[activator]	0%
Cc1oc(C)c2c(=O)cc(-c3ccc4c(c3)OCO4)cc(OC(=O)c3cccc(Br)c3)c12	-3%	-20%
CCOC(=O)C1CCN(c2nc3c(S(=O)(=O)c4ccc(CC)cc4)nnn3c3ccc(Cl)cc23)CC1	0%	-1%
CCOc1ccccc1CNC(=O)c1ccc2nc(N3CCC(C)CC3)sc2c1	-3%	?
O=S1CCN(c2nc(C3CC3)nc3sc4c(c23)CCCC4)CC1	14%	31%[activator]
Cc1cnc(NC(=O)c2csc(NC(C)C)n2)s1	?	64%[activator]
Cc1[nH]n2c(=O)cc(-c3ccccc3Cl)nc2c1-c1ccccc1	-14%&-6%	-13%&-13%
CC1(C)CC2CC(C)(CN2C(=O)CSc2ncc(C(F)(F)F)cc2Cl)C1 (stereo unspecified)	3%	-6%
COc1ccc(Cl)cc1NC(=O)c1c(NCc2ccc(C)o2)sc2c1CCC(C)C2 (stereo unspecified)	?	?
O=CNNC(=S)Nc1cc(Cl)cc(Cl)c1	8%	-2%
COc1ccc(S(=O)(=O)c2cnc3cc(OC)c(OC)cc3c2N2CCCC(C)C2)cc1 (stereo unspecified)	261%[activator]	3%
Cc1nc(-c2cccs2)c(CCC(=O)N2CCN(c3ccccc3F)CC2)s1	24%	15%
CSC(SC)=C1C(=O)OC(C)(C)OC1=O	14%	7%
CC(OC(=O)c1ccc(CCNS(C)(=O)=O)cc1)C(=O)N1CCCC1 (stereo unspecified)	-2%	-3%
Cc1nn2c(C)c(C(=O)NCc3cccc(Br)c3)cnc2c1-c1ccccc1	19%	-7%
CC(C)c1nn2c(=O)cc(COC(=O)c3ccc(NC(=O)c4cccs4)cc3)nc2s1	-6%	-8%
Cc1ccc(OCCn2c(CNC(=O)c3ccco3)nc3ccccc32)cc1	30%	0%
COCCNc1nc2c(c(=O)n(C)c(=O)n2C)n1Cc1c(F)cccc1Cl	3%	-1%
O=C(NCc1ccccc1)c1ccccc1NC(=O)C1CCC1	12%	14%
Cc1cccc(NC(=O)NCCn2c(=O)oc3ccc(C)cc32)c1	117%&55%[activator]	13%&-13%
CCOC(=O)C1=C(C)OC(n2cccc2)=C(C#N)C1c1ccc(OC)cc1 (stereo unspecified)	5%	-5%

Next records.
Structure	2A Renilla	StopGo FLuc
CCN(CC)S(=O)(=O)c1cccc(NC(=O)COc2ncnc3sc(C)c(C)c23)c1	21%	3%
CC(NC(=O)CCCC1=NS(=O)(=O)c2ccccc2N1)c1ccccc1 (stereo unspecified)	8%	-8%
CCc1c(CSC(=N)N)csc1C	13%	0%
COc1ccc(Nc2nc(-c3ccc4c(c3)CCC(=O)N4)cs2)cc1	4%	85%[activator]
Cc1cc(Br)ccc1NC(=O)CNC(=O)c1cc2ccccc2oc1=O	0%	0%
O=C(Nc1ccc(Br)cc1F)N1CCC(CN2CCCC2)CC1	5%	12%
O=C(NCCc1ccccc1)c1ccc(CSc2nc3cccnc3n2Cc2ccc(F)cc2)cc1	9%	34%[activator]
CC(C)(C)Sc1ccc(Cl)nn1	-4%	6%
CCOc1ccc(NC(=O)Cn2c(=O)n(Cc3nc(-c4ccccc4)no3)c(=O)c3cc4c(cc32)OCO4)cc1	0%	-1%
O=C(/C=C/c1cccc(Br)c1)c1ccc2ccccc2c1	-9%[1.06 µM]	35%[activator]
Cc1ccc(S(=O)(=O)N2CCN(C(=O)C(CC(C)C)NC(N)=O)CC2)cc1 (stereo unspecified)	-5%	-7%
COc1ccc(C(C)=O)cc1COC(=O)/C=C/c1cc(Br)ccc1F	-2%	-8%
Cc1ccc(C(=O)NCCCNC(=O)c2cc3ccccc3[nH]2)cc1	26%	8%
COc1ccc(CNS(=O)(=O)c2ccc3c(c2)NC(=O)C(C)C(=O)N3)cc1 (stereo unspecified)	-12%	-12%
COc1ccc2c(C)cc(SCC(=O)Nc3nsc(-c4ccc(C(C)(C)C)cc4)n3)nc2c1	-3%	27%
CN(C)c1ccc(CNC(=O)Cn2c(-c3cccs3)cc3cc(Cl)ccc32)cc1	4%	7%
CCCCCSc1nc2c(c(=O)[nH]c(=O)n2C)n1Cc1ccc(Cl)cc1	-4%	-4%
CCOc1ccc(-c2oc3ccccc3c(=O)c2O)cc1OCC	3%	143%[activator]
CCOCc1nnc(NC(=O)C2CC(=O)N(CCc3c[nH]c4ccc(C)cc34)C2)s1 (stereo unspecified)	-8%	-6%
O=C(NCCS(=O)(=O)N1CCN(c2ccccc2F)CC1)c1ccc(C(F)(F)F)cc1	0%	5%
O=C(Nc1ccccc1Cl)C1CCN(c2nc3ccccc3nc2C(F)(F)F)CC1	-11%	-9%
CCOC(=O)Cn1c(=O)n(CC2CCCO2)c2nc(-c3ccc(CC)cc3)nc(C(N)=O)c21 (stereo unspecified)	10%	8%
CCCc1nc2ccccc2n1CC(O)COc1ccc(C(=O)OC)cc1 (stereo unspecified)	6%	15%
O=C(COc1cc(O)c2c(=O)cc(-c3ccccc3)oc2c1)Nc1ccccc1	-7%	-2%
COc1ccc(CCNC(=O)CSCc2nc(-c3ccc(OC)c(OC)c3)oc2C)cc1OC	-10%	-6%
C=C(C)Cn1c(N2CCN(CC(N)=O)CC2)nc2c1c(=O)[nH]c(=O)n2C	2%	6%
N#CC1=C2SCN(Cc3ccccc3)CN2C(=O)CC1c1cccc2ccccc12 (stereo unspecified)	-3%	-14%
Cc1nc2nc(NCc3cccs3)[nH]n2c(=O)c1CCC(=O)Nc1ccc2ccccc2c1	-10%	-4%
CC(=O)NNC(=S)Nc1ccccc1Cl	4%	0%
C/C(=C/c1[nH]c(N)[n+](CC2CC2)c1Cc1ccccc1)Cn1[nH]c(=O)n(-c2ccccc2)c1=O	-6%	-9%
Cc1ccc(C)c(NC(=O)CCNS(=O)(=O)c2ccc3c(c2)CCCC(=O)N3)c1	6%	6%
CCOC(=O)C1CCCN(c2cc(C)nc3c(-c4ccccc4OC)c(C)nn23)C1 (stereo unspecified)	-6%	-11%
N#Cc1nc(C2CC2)oc1N1CCN(Cc2cccc(F)c2)CC1	-18%	-2%
O=C(Cn1cc(SCc2ccccc2Cl)c2ccccc21)N1CCCCCC1	32%[activator]	61%[activator]
COC(=O)c1cccc(Nc2c(-c3ccc(O)cc3)nc3nc[nH]n23)c1	12%	10%
CCOC(=O)c1sc2nc(CC)c3c(c2c1N)CC(C)(C)OC3	14%	21%
Cc1ccc(C)c(NC(=O)CN2CCSc3ccc(S(=O)(=O)N4CCCC4)cc32)c1	90%[activator]	-14%
O=C(CNC(=O)c1cc(=O)[nH]c2ccccc12)NC1CC1	-5%	-3%
Cc1c(Cl)cccc1NC(=O)C(=O)NCCc1csc(-c2ccc(C(F)(F)F)cc2)n1	-9%	-16%
CCOc1ccc(NS(=O)(=O)c2ccc3[nH]cc(C(=O)NCc4ccco4)c(=O)c3c2)cc1	29%	-17%
COc1cc(NC(=O)c2cccc3c2C(=O)N(C2CCCCC2)C3)cc(OC)c1	5%	6%

Structural class, those above with two or more sulfur atoms (twelve)
Structure	2A Renilla	StopGo FLuc
COC(=O)c1ccc(NS(=O)(=O)c2c(C)nc3sccn3c2=O)cc1	112%[activator]	-22%
CC(C)CCNC(=O)CSc1nnc(NC2CCCCC2)s1	-3%	8%
CS(=O)(=O)NCCc1ccc(C(=O)COc2ccc(Br)cc2Cl)s1	-31%	-14%
O=S1CCN(c2nc(C3CC3)nc3sc4c(c23)CCCC4)CC1	14%	31%[activator]
Cc1cnc(NC(=O)c2csc(NC(C)C)n2)s1	?	64%[activator]
Cc1nc(-c2cccs2)c(CCC(=O)N2CCN(c3ccccc3F)CC2)s1	24%	15%
CSC(SC)=C1C(=O)OC(C)(C)OC1=O	14%	7%
CC(C)c1nn2c(=O)cc(COC(=O)c3ccc(NC(=O)c4cccs4)cc3)nc2s1	-6%	-8%
CCN(CC)S(=O)(=O)c1cccc(NC(=O)COc2ncnc3sc(C)c(C)c23)c1	21%	3%
CCc1c(CSC(=N)N)csc1C	13%	0%
COc1ccc2c(C)cc(SCC(=O)Nc3nsc(-c4ccc(C(C)(C)C)cc4)n3)nc2c1	-3%	27%
Cc1ccc(C)c(NC(=O)CN2CCSc3ccc(S(=O)(=O)N4CCCC4)cc32)c1	90%[activator]	-14%
